# GLA inh pH 4.5 = inhibitors of human alpha-galactosidase A at pH 4.5. purified enzyme, 4-MU-alpha-Gal fluorescence, pH 4.5. activity change, negative = inhibition, % at 105 µM. 230,000 tested, under 10 active; inconclusive = small, poorly fitted or top-dose-only inhibition, or a rising curve; inactive = flat fitted curve, though single readings scatter; no compound was filed as active;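 note: 0% = full activity with enzyme and -100% = basal without enzyme; dose as in the result columns while the protocol names 77 µM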
# miR-21 reporter = miR-21 reporter, rising signal | HeLa miR-21 FLuc reporter, luciferase, 48 h | Potency, µM (titrated, usually from 38.3 µM), for the others: at the top dose reporter change, positive = more light | 340,000 tested, under 10 active | AID 2288; active = well fitted rising curve with a large enough effect; inconclusive = small, poorly fitted or top-dose-only effect; inactive = no such curve, though single readings can be large or run the other way;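 note: % of control where 0% means no effect; miR-21 action dims this reporter so a rising signal means less miR-21 action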
#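 Using DMEM plus 10% FBS, HeLa miR-21-FLuc cells are incubated with test compounds (final up to about 40uM) for 48 hours; firefly luciferase signal is then imaged following reagent-mediated lysis.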
# Rango-impB inh = Rango-importin beta binding inhibition; Q14974; Rango CFP/YFP FRET sensor + importin beta, 45 min; Potency, µM (highest dose often 92.2 µM), without a hit: top-dose inhibition of complex formation; 340,000 tested, 0.031% active; AID 540263; active = rising FRET ratio curve, often small or poorly fitted; inconclusive = mostly compound fluorescence or quenching in the first reads; inactive = flat curves in all reads;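 note: potency is the fitted concentration of half-maximal effect; 0% = DMSO wells and 100% = buffer wells lacking importin beta; nearly all actives have a fitted effect of over 15% in size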
# Target sequence (Q14974 whole entry, looked up): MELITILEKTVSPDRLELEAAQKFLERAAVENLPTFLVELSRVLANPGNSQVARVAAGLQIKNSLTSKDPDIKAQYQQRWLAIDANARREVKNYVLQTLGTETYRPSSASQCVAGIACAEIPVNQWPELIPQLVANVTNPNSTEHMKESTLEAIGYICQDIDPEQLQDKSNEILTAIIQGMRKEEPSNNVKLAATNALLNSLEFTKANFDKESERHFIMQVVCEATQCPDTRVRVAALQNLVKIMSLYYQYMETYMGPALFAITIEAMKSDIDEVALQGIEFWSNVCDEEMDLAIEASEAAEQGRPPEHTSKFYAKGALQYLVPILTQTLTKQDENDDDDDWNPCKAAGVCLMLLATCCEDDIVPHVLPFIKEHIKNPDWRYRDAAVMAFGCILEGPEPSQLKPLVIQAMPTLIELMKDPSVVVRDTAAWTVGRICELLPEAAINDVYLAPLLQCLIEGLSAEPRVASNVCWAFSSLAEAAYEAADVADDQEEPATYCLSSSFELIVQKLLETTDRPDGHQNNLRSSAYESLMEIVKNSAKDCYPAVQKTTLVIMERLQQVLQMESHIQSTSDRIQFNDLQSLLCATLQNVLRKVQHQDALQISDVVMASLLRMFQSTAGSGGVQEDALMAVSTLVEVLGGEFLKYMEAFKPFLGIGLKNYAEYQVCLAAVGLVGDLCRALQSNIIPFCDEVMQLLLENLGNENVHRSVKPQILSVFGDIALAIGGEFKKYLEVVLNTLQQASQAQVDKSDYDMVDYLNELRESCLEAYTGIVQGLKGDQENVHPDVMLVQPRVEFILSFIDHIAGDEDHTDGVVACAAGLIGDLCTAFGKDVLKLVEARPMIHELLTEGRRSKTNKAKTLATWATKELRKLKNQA
#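 Inhibition scored from the CFP 486 nm/YFP 530 nm FRET ratio 45 min after adding 0.125 microM importin beta to 50 nM Rango biosensor preincubated 5 min with compound (room temperature, PBS with DTT, Tween-20, BSA). No-importin wells as positive control.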
# Rango dissoc inh = prevents RanGTP from dissociating the Rango-importin beta complex. AID 540253. Biochemical FRET Rango-importin beta, RanGTP-induced dissociation. Potency, µM (highest dose often 46.1 µM), without a hit: at the highest dose activity change, negative = inhibition. 340,000 tested, 0.071% active; active means falling FRET ratio curve, often poorly fitted, with flat reads before Ran was added; inconclusive means other falling curves, or compound fluorescence or quenching; inactive means flat or rising ratio curve;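 note: potency is the fitted concentration of half-maximal effect; % of control where 0% means no effect; nearly all actives have a fitted effect of over 45% in size; -100% = wells without RanGTP and RCC1; the record marks most hits as doubtful in a second field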
#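 FRET read at 45 min, room temperature: inhibitors block the CFP/YFP signal rise when RanGTP (0.6 uM Ran, 2 mM GTP, 0.2 uM RCC1) frees Rango (0.1 uM) from importin beta (0.25 uM). Pre-read after 5 min compound exposure flags interference.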
# Active calls of the source: *; ? = inconclusive; / = no result given; [ ] = remark or other dose.
SMILES,GLA inh pH 4.5,miR-21 reporter,Rango-impB inh,Rango dissoc inh
COc1cc2cc(-c3ccc(OC)c(OC)c3C)nc(N)c2cc1OC,/,/,0.2%,-9%
C=Cn1cc[n+](CC(=O)c2ccc(OC)c(OC)c2)c1,/,-1%,-1.9%,4%
CCOC(=O)Nc1nnc(CCc2ccccc2)s1,0,-25%,-0.3%,-9%
Cc1ccc(N2CC(NC(=O)C(=O)c3c(C)[nH]c4ccccc34)CC2=O)cc1C (centres undefined),/,/,0.4%,0%
CC(C)Cn1c(=O)c2sccc2n2c(CCCC(=O)NC3CCN(Cc4ccccc4)CC3)nnc12,/,2%,0.5%,-1%
O=C1C[C@@H](c2ccc(O[C@@H]3O[C@H](CO)[C@@H](O)[C@H](O)[C@H]3O)cc2)Oc2cc(O)ccc21,5,-52%,-4.0%,-5%
COc1cccc(CNC(=O)C2CCC(=O)N(CC3CCCCC3)C2)c1OC (centres undefined),/,0%,-0.7%,0%
O=C(COc1ccc(Cl)cc1)OCc1ccc(Cl)cc1,/,/,8.4%,12%
COc1ccc(NS(=O)(=O)c2ccc(-c3n[nH]c(=S)n3Cc3ccccc3)cc2)cc1,0,-1%,3.7%,-23%
COc1ccc(C)cc1NC(=O)c1nnn(CCc2ccccc2)c1N,?,-7%,7.0%,-28%
CC(=O)N(C)c1ccc(NC(=S)NC(=O)/C=C/c2ccco2)cc1,/,5%,-1.1%,-19%
O=C(CSc1nnc(C2COc3ccccc3O2)o1)NC1CCCCC1 (centres undefined),5,-7%,6.3%,-7%
COc1ccc(CNC2CCCCC2)cc1,6,-4%,-0.2%,2%
CSc1ccc(S(=O)(=O)N2CCC(C(=O)Nc3ccc(NC(C)=O)cc3)CC2)cc1,/,3%,4.8%,?
COC(=O)C1CCN(C(=O)CCC2CCCCC2)CC1,0,-9%,-2.6%,37%
O=C(OCC(=O)c1ccccc1Cl)c1cnccn1,5,-6%,4.1%,-4%
CCOc1ccc(OCC(=O)OC(C)C(=O)NC2CCCCC2C)cc1 (centres undefined),/,/,-2.0%,-24%
COCCOC(=O)c1c(C)oc2ccc(OC(=O)COc3c(F)c(F)c(F)c(F)c3F)cc12,-13,-7%,0.6%,14%
COC(=O)c1c(C(=O)OC)c(-c2ccccc2)n2c1CCC2,4,0%,0.2%,17%
Cc1ccc2cc(CN(Cc3ccco3)C(=O)c3cccs3)c(=O)[nH]c2c1,-5,9%,-1.7%,3%
O=C(CSCc1nc2ccccc2[nH]1)Nc1ccc(Oc2ccccc2)cc1,-2,-12%,0.0%,-7%
Cc1cc(CNC(=O)CC2C(=O)NCCN2Cc2ccccc2)nn1C (centres undefined),/,0%,0.3%,?
Cc1nc(NCc2ccccc2)[nH]c(=O)c1CCC(C)C,5,-7%,0.6%,-8%
CCn1c(SCC(=O)N/N=C\c2ccccc2OCC(=O)O)nnc1-c1ccc(Cl)cc1,-5,5%,2.3%,1%
Cc1ccc(C2CC(=O)c3cnc(NC(=O)c4ccco4)nc3C2)cc1 (centres undefined),0,-7%,-1.6%,-5%

# Full records from above. Order of values: GLA inh pH 4.5	miR-21 reporter	Rango-impB inh	Rango dissoc inh
# O=C(COc1ccc(Cl)cc1)OCc1ccc(Cl)cc1 across the screens: /	/	8.4%	12%
# CCOc1ccc(OCC(=O)OC(C)C(=O)NC2CCCCC2C)cc1 (centres undefined) across the screens: /	/	-2.0%	-24%
# O=C(CSc1nnc(C2COc3ccccc3O2)o1)NC1CCCCC1 (centres undefined) across the screens: 5	-7%	6.3%	-7%
# COc1cc2cc(-c3ccc(OC)c(OC)c3C)nc(N)c2cc1OC across the screens: /	/	0.2%	-9%
# Cc1cc(CNC(=O)CC2C(=O)NCCN2Cc2ccccc2)nn1C (centres undefined) across the screens: /	0%	0.3%	?

# Exported bar-delimited: part of the list above.
Structure | GLA inh pH 4.5 | miR-21 reporter | Rango-impB inh | Rango dissoc inh
CC(C)Cn1c(=O)c2sccc2n2c(CCCC(=O)NC3CCN(Cc4ccccc4)CC3)nnc12 | / | 2% | 0.5% | -1%
O=C1C[C@@H](c2ccc(O[C@@H]3O[C@H](CO)[C@@H](O)[C@H](O)[C@H]3O)cc2)Oc2cc(O)ccc21 | 5 | -52% | -4.0% | -5%

# Continuation:
SMILES,GLA inh pH 4.5,miR-21 reporter,Rango-impB inh,Rango dissoc inh
c1ccc(C[n+]2ccc3ccccc3c2)cc1,/,/,-0.8%,0%
CC(=O)Nc1ccc(SCC(=O)Nc2ccc3c(c2)OCCO3)cc1,/,/,-3.3%,9%
O=C(CSc1ccc2nnc(-c3ccccc3)n2n1)N1CCCCC1,/,/,-0.6%,-2%
Cc1ccc(S(=O)(=O)Nc2ccc3c(c2)OCCO3)c(C)c1NS(C)(=O)=O,/,0%,3.3%,-10%
CCOc1ccc(C(=O)N/N=C/c2cc([N+](=O)[O-])cs2)cc1,1[21.1 µM],-4%,3.6%,-8%
Cc1cc(C(=O)CCC(=O)NC(C)c2ccc(S(N)(=O)=O)cc2)c(C)s1 (centres undefined),/,/,0.1%,-7%
Cc1nc(N2CCOCC2)c(C#N)c(C)c1Br,-6,-1%,2.3%,-9%
N=c1n(Cc2ccccc2)c2ccccc2n1CC(O)c1ccco1 (centres undefined),10,2%,0.5%,-11%
Cc1ccccc1NC1=NC(=S)N(c2ccccc2)C12CCCCC2,-6,2%,0.2%,6%
O=C(NNS(=O)(=O)c1ccc(Cl)cc1)c1cnn(-c2ccccc2)c1-n1cccc1,9,-2%,6.0%,12%
C/C(=N\Nc1ncc(Cl)cc1Cl)c1ccc2c(c1)OCO2,4,-33%,4.4%,0%
CN(C)S(=O)(=O)c1ccc(N2CCOCC2)c(C(=O)O)c1,0,-2%,-0.8%,6%
Nc1cc2ccccc2oc1=O,1,-3%,-0.5%,-3%
NC(=O)C1CCN(CCC(=O)Nc2ccc(F)c(F)c2)CC1,/,2%,-2.8%,-7%
CCn1c(-c2cccnc2Cl)nc2ccccc21,-5,-8%,6.5%,0%
Cc1ccc2c(C)c(C(=O)N(Cc3ccccc3)C3CCS(=O)(=O)C3)oc2c1 (centres undefined),/,-2%,-2.1%,1%
CC(C)(C)OC(=O)N1O[C@H]2C[C@@H]1[C@@H]1[C@@H]2N=NN1C12CC3CC(CC(C3)C1)C2,/,/,4.5%,-1%
Cc1ccc(-c2nc3cc(Br)cnc3nc2-c2ccc(C)cc2)cc1,1,-2%,-4.6%,4%
CCOC(=O)N1CCN(c2c(N3CC=C(c4ccccc4)CC3)c(=O)c2=O)CC1,-6,4%,-1.9%,0%
Cc1occc1C(=O)N/N=C/c1ccccc1[N+](=O)[O-],-3,-54%,-1.2%,7%
CCOc1cc(C(=O)NC(C)C2CC3CCC2C3)cc(OCC)c1OCC (centres undefined),/,/,0.6%,-2%
N#Cc1ccc(OCC(=O)N/N=C2/CC(c3ccccc3)Oc3ccccc32)cc1 (centres undefined),2,-7%,0.3%,-5%
Cc1cccc(-c2onc3ccc(C4(C)OCCO4)cc23)c1,1,1%,0.3%,1%
CC(C)N(Cc1nc(-c2ccccc2)no1)C(=O)c1ccc(Br)o1,-14,0%,-2.2%,-9%
Cc1nn2c(N3CCOCC3)cc(C(C)(C)C)nc2c1-c1ccccc1,/,-2%,3.7%,2%
# Continuation.
SMILES,GLA inh pH 4.5,miR-21 reporter,Rango-impB inh,Rango dissoc inh
O=C(NCc1ccncc1)C1CCCN(S(=O)(=O)Cc2ccccc2)C1 (centres undefined),-5,-6%,2.7%,-2%
COc1cccc(OCc2nnc(-c3cccs3)o2)c1,1,-39%,/,/
CC(C)/C=C/C(=O)N1CCC(N2CCC(C(=O)N3CCOCC3)CC2)CC1,8,2%,0.3%,-8%
COC(=O)CCSc1cc([N+](=O)[O-])cc2c1c(C1OCCS1)nn2-c1ccccc1 (centres undefined),5,-20%,?,?
CCOC(=O)CCc1c(C)c2ccc(OCC)c(C)c2oc1=O,-9,-7%,-3.6%,1%
O=C(Nc1sc2c(c1C(=O)O)CCC2)c1ccccc1F,/,4%,?,17%
CC1CCN(C(=O)c2cc3ccccc3cc2O)CC1,/,-23%,1.0%,0%
CCOP(=O)(c1ccccc1)C(O)c1ccc(Br)cc1 (centres undefined),-1,-5%,0.9%,-8%
O=C(NC1CCCc2ccccc21)C1CCN(C(=O)c2sccc2-n2cccc2)CC1 (centres undefined),-1,2%,3.6%,14%
Cc1nnsc1C(=O)Nc1ccc(Cl)cc1,4,-24%,0.8%,-8%
Cc1ccc(-c2csc(Nc3ccc(C(=O)O)cc3)[n+]2Cc2ccccc2)cc1,-5,-8%,0.9%,-5%
COc1ccc(NC(=O)O/N=C/c2ccccc2Cl)cc1,6,-46%,-2.5%,35%
O=C(COC(=O)c1ccc(NS(=O)(=O)c2cccs2)cc1O)NCc1ccccc1,-2,19%,-6.0%,11%
COc1ccc(S(=O)(=O)N2CCN(Cc3cccc(OC)c3OC)CC2)cc1,/,-4%,-1.9%,-10%
CC1Cc2ccccc2N1S(=O)(=O)c1cccc(C(=O)NCc2ccncc2)c1 (centres undefined),/,/,-1.2%,-4%
Cc1cc2ncn(C3CC(=O)N(C)C3=O)c2cc1C (centres undefined),-1,1%,5.8%,-3%
CC1(C)CC(=O)c2cnc(NCC3CCCO3)nc2C1 (centres undefined),9,-19%,3.1%,4%
O=C(NC1CCCCC1)C(c1cccnc1)N(C(=O)c1csnn1)c1ccc(F)cc1 (centres undefined),/,5%,2.6%,2%
N#C/C(=C/c1ccncc1)c1nc2ccccc2s1,9,-41%,?,?
COc1ccc(S(=O)(=O)N(Cc2ccc(OC)c(OC)c2)Cc2ccco2)cc1,-5,6%,-4.3%,-9%
COc1ccc(-c2sc3ccccc3c2C#Cc2cncn2C)cc1,/,/,4.9%,-12%
CC1CCC/C(=N\NC(=O)COc2ccc(Cl)cc2Cl)C1 (centres undefined),-5,-5%,-1.5%,1%
COc1ccc(Cl)cc1NS(=O)(=O)c1cc(Cl)ccc1OC,8,-4%,2.2%,19%
Cc1c2n(c3ccccc13)CC/C2=N\O,-7,-21%,1.0%,12%
O=c1[nH]c2ccc(S(=O)(=O)Nc3ccccc3O)cc2[nH]1,/,1%,7.0%,1%
# More entries.
SMILES,GLA inh pH 4.5,miR-21 reporter,Rango-impB inh,Rango dissoc inh
CCCC(=O)c1c(NC(C)C)cc(C)oc1=O,9,-8%,-0.5%,0%
O=C(CC(=O)c1ccccc1)CC(O)(C=Cc1ccccc1)c1ccccc1 (centres undefined),/,/,1.2%,-6%
Oc1c(Br)cc(Br)cc1/C=N/N1CCN(Cc2ccccc2)CC1,0,-2%,-3.4%,-7%
Cc1c(C(=O)NNC(=O)c2csc(N3CCOCC3)n2)cccc1[N+](=O)[O-],/,/,4.8%,4%
CN(C)c1ccc(C(=O)/C=C/c2cccnc2)cc1,/,3%,0.6%,-6%
CCOC(=O)NC(NC(=S)Nc1ccc(OCC)cc1)C(Cl)(Cl)Cl (centres undefined),-14,-20%,3.6%,1%
c1ccc(-c2noc(C34CC5CC(CC(C5)C3)C4)n2)nc1,-3,-57%,-1.7%,-10%
Cc1nnc(SCC(=O)Nc2c(Cl)cccc2Cl)[nH]c1=O,8,-9%,4.3%,1%
O=C1CC2(CCCC2)C(=O)N1c1ccc(S(=O)(=O)NCC2CC2)cc1Cl,-9,2%,-0.6%,-5%
Cc1cccc2c(=O)oc(-c3ccccc3Cl)nc12,/,0%,0.6%,3%
CCC(C)OC1OC(CO)C(O)C(O)C1NC(C)=O (centres undefined),-2,-4%,1.0%,19%
Cc1ccc(C(=O)Oc2ccccc2N2C(=O)C3CCC(C)CC3C2=O)cc1 (centres undefined),-2,2%,5.4%,-9%
Cc1ccc(C)c(N(CC(N)=O)S(C)(=O)=O)c1,-16,-4%,-0.8%,-18%
O=C(OCCc1ccccc1)c1cc(O)c(O)c(O)c1,/,/,6.9%,-8%
O=C(NCCc1ccccc1)C1CCN(S(=O)(=O)c2ccc(-n3cnnn3)cc2)CC1,-6,-2%,2.6%,-3%
CC(=O)c1cccc(NC(=O)C(C)OC(=O)c2cc(=O)[nH]c3ccccc23)c1 (centres undefined),/,/,7.0%,10%
Fc1c(F)c(F)c(NC2=NCCCCC2)c(F)c1F,/,1%,0.0%,-10%
Cc1ccc(-c2nnc(N3CCN(CCO)CC3)c3ccccc23)cc1,/,-2%,0.0%,-15%
COc1ccc(C/C(C)=N/NC(=O)c2ccc(Cl)cc2)cc1,4,-9%,-0.6%,7%

# Screening results as filed in PubChem BioAssay.

# Only part of the results is shown; rates above refer to the full screens.
